# Assay outcomes deposited in PubChem by National Center for Advancing Translational Sciences (NCATS).
# EPAC2 ant val – human EPAC2 antagonism, validation | Q8WZA2 | EPAC2 Rap1B BODIPY-GDP exchange, fluorescence | Potency, µM (doses to about 112 µM), for inactives: top-dose activity, negative = inhibition, actives largely listed as inhibitors | 1.7% of 16,000 active; active = well fitted inhibition curve with a large enough effect; inconclusive = small, poorly fitted or top-dose-only effect; inactive = no such curve, though single readings can be large or run the other way;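 note: 100% = activation by cAMP agonist control; nearly all actives have a fitted effect of over 40% in size; the record reuses the description of the EPAC1 agonist screen; inactives centre near -10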
# Target sequence (Q8WZA2 whole entry, looked up): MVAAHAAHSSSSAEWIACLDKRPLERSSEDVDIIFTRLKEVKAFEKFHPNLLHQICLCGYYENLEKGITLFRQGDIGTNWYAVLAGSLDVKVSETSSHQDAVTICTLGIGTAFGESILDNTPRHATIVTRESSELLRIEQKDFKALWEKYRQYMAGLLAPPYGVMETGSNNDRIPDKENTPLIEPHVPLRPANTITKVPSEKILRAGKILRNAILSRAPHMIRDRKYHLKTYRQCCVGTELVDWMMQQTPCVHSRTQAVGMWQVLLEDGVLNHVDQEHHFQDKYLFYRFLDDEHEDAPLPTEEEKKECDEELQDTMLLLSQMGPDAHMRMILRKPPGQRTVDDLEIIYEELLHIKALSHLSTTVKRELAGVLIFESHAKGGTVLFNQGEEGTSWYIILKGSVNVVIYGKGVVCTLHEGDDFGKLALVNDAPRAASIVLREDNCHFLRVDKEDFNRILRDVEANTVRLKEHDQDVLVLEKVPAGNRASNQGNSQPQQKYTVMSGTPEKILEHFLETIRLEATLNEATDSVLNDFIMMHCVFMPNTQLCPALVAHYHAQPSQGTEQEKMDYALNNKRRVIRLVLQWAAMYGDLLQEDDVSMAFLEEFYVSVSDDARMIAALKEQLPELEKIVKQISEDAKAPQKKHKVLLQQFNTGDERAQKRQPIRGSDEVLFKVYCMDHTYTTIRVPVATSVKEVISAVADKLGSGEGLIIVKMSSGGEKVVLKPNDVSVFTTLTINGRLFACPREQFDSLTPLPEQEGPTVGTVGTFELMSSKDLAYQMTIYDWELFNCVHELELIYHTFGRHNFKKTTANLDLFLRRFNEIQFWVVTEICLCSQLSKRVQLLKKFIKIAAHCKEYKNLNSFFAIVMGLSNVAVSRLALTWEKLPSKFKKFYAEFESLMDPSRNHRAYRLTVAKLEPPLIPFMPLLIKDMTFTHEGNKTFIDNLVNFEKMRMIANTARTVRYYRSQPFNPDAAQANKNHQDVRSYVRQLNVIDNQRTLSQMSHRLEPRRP
#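 Fluorescent exchange read-out: 100 nM EPAC2 with 250 nM RAP1B–BODIPY-GDP and 50 uM GDP; BODIPY-GDP release lowers fluorescence. Read at 480/540 nm every 5 min for 30 min at room temperature; normalized to 6.5 mM cAMP.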
# The depositor's hits bear a star; ? = inconclusive; & = joins results of further samples; [ ] = remark or other dose. Potency is the fitted concentration of half-maximal effect.
molecule | EPAC2 ant val
O=[N+]([O-])c1ccc(CSc2ncnc3c2ncn3C2OC(CO)C(O)C2O)cc1 (stereo not given) | -14%
CN(C)c1ncc2nc(-c3ccc(F)cc3)c(=O)n(C3CC3)c2n1 | -4%
CN1CCCN(C(c2ccccc2)c2ccc(Cl)cc2)CC1 (stereo not given) | -6%
C=C1CC[C@H](O)C/C1=C/C=C1\CCC[C@]2(C)C([C@H](C)CCCC(C)(C)O)CC[C@@H]12 (stereo not given in full) | ?
NC1(C(=O)O)C[C@H](C(=O)O)[C@H](C(=O)O)C1 (stereo not given in full) | -4%&-4%&-11%
CN(Cc1cccc2ncccc12)C(=O)c1cnn(-c2ncc3c(n2)-c2ccccc2CC3)c1C1CC1 | -8%
Cn1c(=O)c(-c2ccc(F)cc2)nc2cnc(Nc3ccccc3)nc21 | -1%
CCOC(=O)C[C@H]1c2ccccc2S(=O)(=O)N1Cc1ccc(Cl)cc1 | ?
COCCn1c(=O)c(-c2cccc(C#N)c2)nc2cnc(N(C)C)nc21 | 1%
COc1ccccc1CN1CC2(CCN(C(=O)c3cccc(F)c3)CC2)C1 | ?
Cc1nc2cnc(Oc3cccc(Cl)c3)nc2n(Cc2ccc(F)cc2)c1=O | ?
CCCCCC(C)N (stereo not given) | -4%
COc1ncc2nc(-c3ccccc3)c(=O)n(C[C@H]3CCCO3)c2n1 | -22%
Nc1ncnc2c1nc(Br)n2C1OC2COP(=O)(O)O[C@@H]2C1O (stereo not given in full) | 1.3µM*
CC(C)C1CCC(C(=O)N[C@H](Cc2ccccc2)C(=O)O)CC1 (stereo not given in full) | ?
Cc1cc(C(=O)NCCN2Cc3ccccc3OC(c3ccccc3F)C2)no1 (stereo not given) | ?
COc1ccc2c(c1)CCc1cnc(-n3ncc(C(=O)NCc4cc(C)no4)c3C3CC3)nc1-2 | -12%
O=C1C[C@H]2C=CCc3cccc(c32)CN1Cc1cccc(F)c1 | ?
COc1ccccc1Oc1coc2cc(O)ccc2c1=O | -16%
Nc1cc(N2CCCCC2)nc(N)[n+]1OS(=O)(=O)[O-] | -7%[151 µM]
COc1ccc(-c2nc3cnc(OC)nc3n(C3CC3)c2=O)cc1 | -21%
O=c1c(CN2CCOc3ccc(CN4CCC(Oc5cccnc5)CC4)cc3C2)coc2ccccc12 | -25%
O=C(NCc1cccnc1)[C@@H]1CC=C[C@@H]2CCN(Cc3ccccc3)C(=O)[C@@H]21 | 18%
CNc1ncncc1-c1ccccc1C | -22%
CCCCNC(=O)O[C@@H]1C[C@H]2CCCC(=O)N3CC[C@@H](C1)[C@@H]23 | 35%[activator]
COc1ccc2[nH]c3c(c2c1)CCNC3=O | -8%
CCCCCCCCCCCCCCC(F)C(=O)O (stereo not given) | ?
O=c1cc(-c2ccccc2F)[nH]c2cc3c(cc12)OCO3 | -21%
O=C(CN1Cc2ccccc2OC(c2ccsc2)C1)NCc1ccc2c(c1)OCO2 (stereo not given) | ?
COC(=O)C1CCCCN1Cc1ccc2c(c1)CN(Cc1cn[nH]c1-c1ccc(F)cc1)CCO2 (stereo not given) | -38%
COc1cccc(Cn2c(=O)c(-c3cc(F)cc(F)c3)nc3cncnc32)c1 | -22%
Cc1ncc2c(c1CNC(=O)c1ccc3c(c1)OCO3)CCN(C(=O)c1ccc3ccccc3c1)C2 | -10%
Nc1ncnc2c1[nH]c(=O)n2C1OC(CO)C(O)C1O (stereo not given) | -2%
Cn1cccc1C(=O)N1CCC2(CCN(Cc3ccc(C#N)cc3)CC2)CC1 | -16%
Cc1noc(C)c1-c1ccc2ncnc(N3CCN(C)CC3)c2c1 | -5%
COc1ccc(SC[C@H](C)CN2CC[C@H](C(C)(C)C)CCC2=O)cc1 | ?
N=C(N)SCCN | 4%&-8%&-20%
CC(CN1c2ccccc2Sc2ccc(S(=O)(=O)N(C)C)cc21)N(C)C (stereo not given) | 10%
CCNc1ncc2nc(-c3cc(F)cc(F)c3)c(=O)n(Cc3ccc(F)cc3)c2n1 | 4%
CC(C)CN1CCC2(CC1)CCN(C(=O)c1cccn1C)CC2 | -8%
COc1ccccc1-c1ccnc(-n2ncc(C(=O)NCCc3ccncc3)c2C)n1 | -18%
CC(CCc1ccc2c(c1)OCO2)NN (stereo not given) | 6%
c1cncc(CNc2ncncc2-c2ccoc2)c1 | -10%
O[C@@H](CNC[C@H](O)[C@H]1CCc2cc(F)ccc2O1)[C@@H]1CCc2cc(F)ccc2O1 | 2%
CCCCCCC[n+]1ccc(/C=C/c2c[nH]c3ccccc23)c2ccccc21 | 4%
COC1C(O)C(O)C(O)C(O)C1O (stereo not given) | -2%
COC(=O)N1CCC2(CCCN(c3ncccn3)C2)CC1 | -15%
O=C(Nc1cccc(F)c1)N1CCCC2(CCN(C(=O)c3cc(C(F)(F)F)cc(C(F)(F)F)c3)CC2)C1 | ?
NC(=O)c1cc[n+](CC2=C(C(=O)O)N3C(=O)[C@@H](NC(=O)C(c4ccccc4)S(=O)(=O)[O-])[C@H]3SC2)cc1 (stereo not given in full) | 32%[activator][56.6 µM]
CC(=O)SC1CC2=CC(=O)CC[C@]2(C)C2CC[C@@]3(C)C(CC[C@@]34CCC(=O)O4)C12 (stereo not given in full) | ?
Cc1cc2c(C(C)C)c(O)c(O)c(C=O)c2c(O)c1-c1c(C)cc2c(C(C)C)c(O)c(O)c(C=O)c2c1O | ?
COCC(=O)N1CCC2(CC1)CN(c1ccccn1)C2 | -29%
C=C1[C@H](CO)[C@@H](O)C[C@@H]1n1cnc2c(=O)[nH]c(N)nc21 | -3%
O=S(=O)(c1ccccc1)N1CCC[C@@]2(CCN(c3ccccc3)C2)C1 | -14%
O=c1cc(-c2ccccc2O)oc2c1ccc1ccccc12 | -5%
COc1ccccc1CN1CCCC2(CCN(C(=O)c3cc(C(F)(F)F)cc(C(F)(F)F)c3)CC2)C1 | -19%

# (listing goes on)
molecule | EPAC2 ant val
COc1cc2nc(N3CCN(C(=O)OCc4ccccc4)C(C(=O)NC(C)(C)C)C3)nc(N)c2cc1OC (stereo not given) | ?
CCCCCN(CCCCC)C(=O)C(CCC(=O)O)NC(=O)c1ccc(Cl)c(Cl)c1 (stereo not given) | ?
COc1ccccc1-c1ccnc(-n2ncc(C(=O)NCC3(N4CCOCC4)CCCC3)c2C)n1 | -12%
c1ccc(Nc2ncnc3ccc(-c4ccc5c(c4)OCO5)cc23)cc1 | -21%
CC(=O)NCCNc1ncnc2ccc(-c3ccccc3C)cc12 | -15%
CCOC(=O)c1c(C)cc(O)cc1O | ?
Cc1noc(C)c1C(=O)N1CCC[C@@]2(CCN(c3ccccc3)C2)C1 | -32%
CCN(CC)C(=S)S | -24%
COc1ccc(-c2nc3cnc(Oc4cccc(Cl)c4)nc3n(C3CC3)c2=O)cc1 | -5%
COc1cccc(OC)c1C(=O)N[C@@H]1C(=O)N2[C@@H]1SC(C)(C)[C@@H]2C(=O)O | -9%
COc1ccc(Oc2ncc3nc(C)c(=O)n(Cc4cccs4)c3n2)cc1 | ?
CCCn1c(=O)c2c(ncn2C)n(CCC)c1=O | -29%&-12%
CC(=O)N1CCC[C@H]1C(=O)NCC1Cc2cc(Cl)cc(-c3ccc4[nH]ccc4c3)c2O1 (stereo not given in full) | ?
CCCCCCCCCCCC(=O)O[C@H](CC(=O)O)C[N+](C)(C)C | -16%
CC(=O)Nc1cc(C(=O)N2CC3(C)CC2CC(C)(C)C3)cc2ncn(CCc3ccccn3)c12 (stereo not given) | -1%
COc1cccc(Nc2ncc3nc(-c4ccccc4)c(=O)n(C4CC4)c3n2)c1 | -12%
O=c1c(-c2cc(F)cc(F)c2)nc2cnc(N3CCOCC3)nc2n1Cc1ccc(F)cc1 | 5%
NS(=O)(=O)c1cc2c(cc1Cl)NC(C(Cl)Cl)NS2(=O)=O (stereo not given) | ?
Cc1cc(O)c2c(c1O)C(=O)c1c(O)cc(C)c(O)c1C2=O | 15%
C#C[C@]1(O)CCC2C3CCC4=Cc5oncc5C[C@@]4(C)C3CC[C@@]21C (stereo not given in full) | -9%
CCCCCCCCCCCCC/C=C\[C@@H](O)[C@@H](N)CO | -8%
CC(C)=CCC/C(C)=C/CO | 6%&-26%
CCCCCCCCCCCCCC[n+]1ccc(C)cc1 | ?
CC(C)CCCC(C)C1CCC2C3CC(O)[C@@]4(O)CC(O)CC[C@@]4(C)C3CC[C@@]12C (stereo not given in full) | -15%

# The last five records of the part above open the next one.
molecule | EPAC2 ant val
C#C[C@]1(O)CCC2C3CCC4=Cc5oncc5C[C@@]4(C)C3CC[C@@]21C (stereo not given in full) | -9%
CCCCCCCCCCCCC/C=C\[C@@H](O)[C@@H](N)CO | -8%
CC(C)=CCC/C(C)=C/CO | 6%&-26%
CCCCCCCCCCCCCC[n+]1ccc(C)cc1 | ?
CC(C)CCCC(C)C1CCC2C3CC(O)[C@@]4(O)CC(O)CC[C@@]4(C)C3CC[C@@]12C (stereo not given in full) | -15%
CCN(Cc1ccncc1)Cc1ccc2c(c1)CN(C(=O)c1ccccc1-n1cccn1)CCO2 | 9%
COc1ccccc1-c1nc(Nc2ccncc2)c2ccccc2n1 | -12%
Cc1cc(=O)[nH]c2cc(N)ccc12 | 3%
CC(=O)Oc1cc(-c2coc3cc(OC(C)=O)c(OC(C)=O)c(OC(C)=O)c3c2=O)cc(OC(C)=O)c1OC(C)=O | 21%
OCCN1CCN(CC/C=C2/c3ccccc3Sc3ccc(Cl)cc32)CC1 | -7%[56.6 µM]
Cn1cc(-c2nc3cnc(Oc4ccccc4)nc3n(C3CC3)c2=O)c2ccccc21 | -4%
CCn1nc(C)cc1C(=O)NCC1Cc2cccc(-c3cccnc3)c2O1 (stereo not given) | -1%
CCCOC(=O)c1c(-c2ccccc2)nc(CC)c(C(=O)SCC)c1CCC | -19%
COc1ccccc1-c1cncnc1NCCN1CCOCC1 | -12%
O=C(C[n+]1ccncc1)c1ccc2c(c1)CCCC2 | -3%
O=C(c1cccc(F)c1)N1CCC[C@@]2(CCN(C(c3ccccc3)c3ccccc3)C2)C1 | ?
Clc1ccc(-n2cccc2CN2CCc3nnc(Cc4ccccc4)n3CC2)nc1 | 2%
O=c1[nH]c(-c2ccccc2O)nc2ccccc12 | 8%
CN(C)c1nc(-c2cccnc2)nc2ccccc12 | -34%
Cc1cc(=O)oc2c(O)c(O)ccc12 | -9%
CCCCCCCCN1[C@@H](CC(=O)OCC)c2cc(F)ccc2S1(=O)=O | ?
Cc1cccc(CNc2ncnc3ccc(-c4ccccc4CN(C)C)cc23)c1 | -14%
CN(C)C(=O)c1ccc(-c2nc(Nc3ccc(F)cc3)c3ccccc3n2)cc1 | -19%
CC1(C)CO[C@H](CC(=O)O)CN1 | -20%
COc1ccccc1CNc1ccnc(-c2c(C)noc2C)n1 | -32%
O=c1c(-c2cccs2)nc2cnc(N3CCOCC3)nc2n1CCc1ccccc1 | 7%
CC(C)(S)[C@@H](N)C(=O)O | -4%
COCCn1c(=O)cnc2cnc(N(C)C)nc21 | -26%
COC(=O)[C@@H]1CCCN1Cc1ccc2c(c1)CN(Cc1ccc3c(c1)CCO3)CCO2 | -18%
O=C1[C@H]2[C@H](C=CC[C@H]2C(=O)N2CCOCC2)CCN1Cc1ccccc1 | -13%
O=C(NCC1Cc2cccc(-c3ncccn3)c2O1)C1CCCO1 (stereo not given) | -13%
COc1cc(=O)n2c(c1C(=O)NC(C)c1ccco1)CCN(C(=O)c1cccc(C)c1C)CC2 (stereo not given) | -19%
CN1CCC(=C2c3ccccc3C=Cc3ccccc32)CC1 | ?
CCC1CN(Cc2cccn2-c2ccccn2)Cc2cc(OC)ccc2O1 (stereo not given) | -27%
CC(C)CN1CC[C@@]2(CCCN(C(=O)c3cnccn3)C2)C1 | -24%
Nc1ncnc2c1ncn2[C@@H]1O[C@H](COP(=O)(O)OP(=O)(O)CP(=O)(O)O)[C@@H](O)[C@H]1O | 5%
COc1cc(O)c(C(=O)/C=C/c2ccccc2)c(OC)c1 | -3%
CC[N+](CC)(CC)CC(=O)Nc1c(C)cccc1C | 15%
O=C(Nc1ccccc1)[C@@H]1CC=C[C@@H]2CCN(Cc3ccc(Cl)c(Cl)c3)C(=O)[C@@H]21 | -11%
COc1ccc(C2OC3C(CO)OC(n4cnc5c(=O)[nH]c(N)nc54)C3O2)cc1 (stereo not given) | -9%
CCOC(=O)[C@H](CCc1ccccc1)N[C@@H](C)C(=O)N1[C@H](C(=O)O)C[C@@H]2CCC[C@@H]21 | 22%
CCC1(C2CCN(Cc3cccnc3)CC2)NC(=O)N(CC2COc3ccccc3O2)C1=O (stereo not given) | -20%
Nc1ccc([N+](=O)[O-])cc1O | -21%[239 µM]
Cc1ncc[nH]1 | -11%
O=[N+]([O-])c1ccc(-c2nc(-c3ccc(F)cc3)c(-c3ccncc3)[nH]2)cc1 | ?
CCOC(=O)c1ccc(-c2c(-c3cc(OC)c(OC)c(OC)c3)noc2C)cc1F | ?
C[C@@H]1C[C@H]2[C@@H]3C[C@H](F)C4=CC(=O)C=C[C@]4(C)[C@@]3(Cl)[C@@H](O)C[C@]2(C)[C@H]1C(=O)COC(=O)C(C)(C)C | 10%
c1cncc(-c2cncnc2NCc2cccs2)c1 | -16%
O=C(C[N+]12CCCc3cccc(c31)CCC2)c1ccc(Cl)c2ccccc12 | -19%
COc1cc(=O)n2c(c1C(=O)N(C)Cc1nonc1C)CCN(Cc1cc(C)c(C)cc1C)CC2 | ?
CCOC(=O)C[C@H]1c2cc(F)ccc2S(=O)(=O)N1Cc1ccc(OC)cc1 | ?

# An excerpt; count on the stated rates, not on these rows.
